Compound activity: PubChem BioAssay, Broad Institute
Vaccinia inh: Vaccinia orthopox stage-specific inhibition; 0.01% of 89,000 active; Vaccinia-infected cells, mCherry/Venus stage reporter fluorescence; active compounds read low; some inactives read as strong as hits; AID 1053133; activity change (mCherry), % (test concentration not listed);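 active = mCherry past -33% and 40 or more points under the early reporter, replicates agreeing; inconclusive = past -33% without that gap or agreement; tested in A549 cells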;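 also: scaled between vehicle wells and reference inhibitor wells; 23 nL library stock went into each well; one replicate is shown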
Vaccinia inh Venus: second read-out of Vaccinia inh, no call of its own (marks repeat the call); activity change (Venus), %; measured here: Venus reporter, other viral stage;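 negative = less Venus signal; first of two replicates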
* marks the source's active call; other numbers are inactive results; u = inconclusive; x = not tested or not shown; & = joins results of further samples. Not all compounds are listed; the hit share may differ from the screen's.

1) CC(C)CC#Cc1ccc2c(c1)O[C@H](CN(C)C(=O)NC(C)C)[C@@H](C)CN([C@@H](C)CO)S2(=O)=O
2) CCCC(=O)N1CCC2(CC1)CN(Cc1cccnc1)[C@H](CO)c1[nH]c3cc(OC)ccc3c12
3) CCCC#Cc1cnc2c(c1)C(=O)N([C@@H](C)CO)C[C@H](C)[C@@H](CN(C)C(=O)C1CCOCC1)O2
4) CCNC(=O)C[C@H]1CC[C@H]2[C@H](COc3ccc(NC(=O)Nc4ccc(C)cc4)cc3C(=O)N2C)O1
5) CC(C)CC#Cc1cnc2c(c1)C(=O)N([C@@H](C)CO)C[C@@H](C)[C@H](CN(C)C(=O)NC1CCCC1)O2
6) C[C@@H]1CCCCO[C@@H](CN(C)Cc2ccccc2)[C@H](C)CN([C@H](C)CO)C(=O)c2cc(NC(=O)Nc3cccc4ccccc34)ccc2O1
7) Cc1ccc(S(=O)(=O)N(C)C[C@@H]2Oc3cc(C#CC4CCCC4)ccc3S(=O)(=O)N([C@H](C)CO)C[C@@H]2C)cc1
8) O=C(N[C@@H]1CC[C@@H](CCn2cc(C3(O)CCCC3)nn2)O[C@H]1CO)C1CCCC1

Screen / compound no. | 1 | 2 | 3 | 4 | 5 | 6 | 7 | 8
Vaccinia inh Venus | -13 | 11 | -6 | 10 | -22 | x | -13 | 4
Vaccinia inh | -26 | 21 | 9 | 15 | -20 | u | -16 | -12

9) COc1ccc(NC(=O)Nc2ccc3c(c2)C(=O)N([C@@H](C)CO)C[C@H](C)[C@@H](CN(C)C(=O)Nc2c(C)noc2C)OCCCC[C@H](C)O3)cc1
10) COCC(=O)Nc1ccc2c(c1)C(=O)N(C)C[C@H](OC)[C@@H](C)CN(C(=O)c1cccnc1)[C@@H](C)CO2
11) CCC(=O)N1C[C@H](C)[C@H](OC)CN(C)C(=O)c2ccc(NC(=O)c3ccc(F)cc3)cc2OC[C@H]1C
12) C[C@@H]1CN([C@@H](C)CO)C(=O)c2cc(-c3cncnc3)cnc2O[C@@H]1CN(C)C(=O)CN1CCOCC1
13) C[C@@H]1CN([C@H](C)CO)C(=O)c2cccc(NC(=O)NC3CCCCC3)c2O[C@@H]1CN(C)Cc1ccc(Oc2ccccc2)cc1
14) CN1CCCCN2[C@H](CO)[C@@H](c3ccc(Br)cc3)[C@@H]2C1
15) C[C@H](CO)N1C[C@H](C)[C@H](CN(C)C(=O)Nc2cccc3ccccc23)Oc2ccc(NC(=O)Nc3ccccc3)cc2C1=O
16) C[C@H](CO)N1C[C@H](C)[C@@H](CN(C)C(=O)c2ccccc2F)Oc2ncc(C#Cc3ccc(F)cc3)cc2C1=O

Screen / compound no. | 9 | 10 | 11 | 12 | 13 | 14 | 15 | 16
Vaccinia inh Venus | 5 | 6 | 3 | 4 | x | -2 | 25 | x
Vaccinia inh | 9 | 10 | -6 | 18 | u | 9 | 32 | u

17) C[C@H](CO)N1C[C@H](C)[C@H](CN(C)Cc2ccc(Cl)c(Cl)c2)Oc2c(NC(=O)Nc3ccc(F)cc3)cccc2C1=O
18) Cc1noc(C)c1NC(=O)N(C)C[C@H]1OCc2ccccc2-c2ccccc2C(=O)N([C@@H](C)CO)C[C@@H]1C
19) COc1cccc(NC(=O)Nc2ccc3c(c2)C(=O)N(C)C[C@H](OC)[C@@H](C)CN[C@@H](C)CO3)c1
20) Cc1ccc(S(=O)(=O)N2CC[C@@H]3[C@H]2c2cc(-c4cccc(C#N)c4)ccc2N(C)[C@H]3CO)cc1
21) COc1cccc(CNC(=O)C[C@H]2C=C[C@H](NC(=O)C3CC3)[C@@H](CO)O2)c1
22) Cc1ccc(S(=O)(=O)Nc2ccc3c(c2)CC(=O)N([C@@H](C)CO)C[C@@H](C)[C@H](CN(C)C(=O)Nc2ccc4c(c2)OCO4)O3)cc1
23) C[C@@H]1CN([C@H](C)CO)C(=O)c2cc(-c3ccccc3)cnc2O[C@@H]1CN(C)C(=O)Nc1ccccc1F
24) C[C@H](CO)N1C[C@H](C)[C@H](CN(C)CC2CCCCC2)Oc2ccc(NC(=O)c3ccncc3)cc2CC1=O

Screen / compound no. | 17 | 18 | 19 | 20 | 21 | 22 | 23 | 24
Vaccinia inh Venus | x | 17 | 14 | -19 | 0 | 4 | -6 | 4
Vaccinia inh | u | 22 | 1 | -29 | 5 | 10 | 15 | 1

25) CC=Cc1ccc2n(c1=O)C[C@H]1[C@H](CO)[C@@H](C(=O)NCC3CC3)[C@@H]2N1Cc1ccccc1 (mixture of isomers)
26) C[C@H]1CN([C@@H](C)CO)C(=O)c2cc(C3=CCCCC3)cnc2O[C@H]1CN(C)C(=O)c1ccncc1
27) Cc1noc(C)c1NC(=O)Nc1ccc2c(c1)C(=O)N([C@H](C)CO)C[C@H](C)[C@@H](CN(C)C(=O)Nc1c(C)noc1C)OCCCC[C@H](C)O2
28) CC(C)CC#Cc1cnc2c(c1)C(=O)N([C@H](C)CO)C[C@@H](C)[C@@H](CN(C)C(=O)c1cccnc1)O2
29) CNC(=O)C[C@H]1CC[C@@H]2[C@@H](COc3ccc(NC(=O)Nc4cccc(Cl)c4)cc3C(=O)N2C)O1
30) CO[C@H]1CN(C)C(=O)c2ccc(NC(=O)Nc3ccccc3)cc2OC[C@@H](C)N(CC2CC2)C[C@H]1C
31) C[C@H]1CN([C@@H](C)CO)S(=O)(=O)c2ccc(-c3ccc(C(=O)N(C)C)cc3)cc2O[C@@H]1CN(C)C(=O)C1CCCCC1
32) CC(=O)N(C)C[C@@H]1Oc2cc(C#CC3CCCC3)ccc2S(=O)(=O)N([C@@H](C)CO)C[C@@H]1C

Screen / compound no. | 25 | 26 | 27 | 28 | 29 | 30 | 31 | 32
Vaccinia inh Venus | 11 | -3 | 6 | 10 | 7 | 4 | 1 | x
Vaccinia inh | -1 | -2 | 14 | 14 | 0 | 9 | 0 | u

33) C[C@@H]1CN([C@H](C)CO)C(=O)Cc2cc(NS(=O)(=O)c3ccccc3)ccc2O[C@@H]1CN(C)C
34) CNC[C@H]1Oc2ccc(NC(=O)NC(C)C)cc2CC(=O)N([C@H](C)CO)C[C@H]1C
35) O=C(Cc1ccccn1)N1CC(=O)N2[C@H](C1)[C@H](c1ccc(-c3ccc(F)cc3)cc1)[C@@H]2CO
36) CNC(=O)C[C@H]1CC[C@@H]2[C@H](COc3ccc(NC(=O)Nc4ccccc4)cc3C(=O)N2C)O1
37) C[C@H](O)C#Cc1ccc([C@H]2[C@H](CO)N3CCCCN(C(=O)c4ccc5c(c4)OCO5)C[C@@H]23)cc1
38) C[C@H](CO)N1C[C@H](C)[C@@H](CN(C)Cc2ccc(C(=O)O)cc2)OCCCC[C@H](C)Oc2ccc(NC(=O)CCCN(C)C)cc2C1=O
39) C[C@H](CO)N1C[C@H](C)[C@H](CN(C)C(=O)Nc2ccc(C(F)(F)F)cc2)Oc2ccc(NC(=O)Cc3ccccc3)cc2CC1=O
40) CO[C@@H]1CN(C)C(=O)c2cc(NC(=O)Nc3c(C)noc3C)ccc2OC[C@H](C)NC[C@@H]1C

Screen / compound no. | 33 | 34 | 35 | 36 | 37 | 38 | 39 | 40
Vaccinia inh Venus | 4 | -3 | -4 | 16 | 3 | 9 | -5 | 9
Vaccinia inh | 10 | 6 | -2 | 13 | 12 | 14 | -18 | 25

41) CC(C)CC#Cc1ccc2c(c1)O[C@H](CN(C)Cc1cncnc1)[C@H](C)CN([C@@H](C)CO)S2(=O)=O
42) C[C@H](CO)N1C[C@H](C)[C@H](CN(C)S(C)(=O)=O)Oc2ncc(C#Cc3ccc(F)cc3)cc2C1=O
43) Cc1ccccc1S(=O)(=O)N1[C@H](C#N)[C@H](c2ccccc2)[C@@H]1CO
44) C[C@H](CO)N1C[C@H](C)[C@H](CN(C)CC2CCCCC2)Oc2ccc(NS(=O)(=O)c3cccs3)cc2CC1=O
45) CS(=O)(=O)Nc1ccc2c(c1)[C@@H]1C[C@@H](CC(=O)NCc3ccncc3)O[C@@H](CO)[C@@H]1O2
46) COc1ccc(NC(=O)N(C)C[C@H]2OCCCC[C@@H](C)Oc3ccc(NC(=O)NC4CCCCC4)cc3C(=O)N([C@H](C)CO)C[C@@H]2C)cc1
47) C[C@H](CO)N1C[C@H](C)[C@H](CN(C)CC2CC2)OCCCC[C@H](C)Oc2ccc(NS(=O)(=O)c3ccc(F)cc3)cc2C1=O
48) CO[C@@H]1CN(C)C(=O)c2ccc(NC(=O)C3CCC3)cc2OC[C@@H](C)N(C(=O)Nc2ccc(C(F)(F)F)cc2)C[C@H]1C

Screen / compound no. | 41 | 42 | 43 | 44 | 45 | 46 | 47 | 48
Vaccinia inh Venus | x | 0&7 | -4 | -15 | 5 | -1 | -13 | x
Vaccinia inh | u | 10&4 | -2 | -24 | 5 | 5 | -7 | u

49) C[C@@H]1CCCCO[C@@H](CN(C)C)[C@@H](C)CN([C@H](C)CO)C(=O)c2cc(NC(=O)CCC(F)(F)F)ccc2O1
50) Cc1noc(C)c1NC(=O)Nc1ccc2c(c1)C(=O)N([C@H](C)CO)C[C@H](C)[C@@H](CN(C)Cc1ccc(C(=O)O)cc1)O2
51) Cc1ccc(S(=O)(=O)Nc2ccc3c(c2)CC(=O)N([C@@H](C)CO)C[C@@H](C)[C@H](CN(C)Cc2ccc(C(=O)Nc4ccccc4N)cc2)O3)cc1
52) COc1ccccc1S(=O)(=O)N[C@H]1CC[C@H](CCNC(=O)C2CCOCC2)O[C@@H]1CO
53) C[C@H]1CN([C@@H](C)CO)C(=O)c2cc(NC(=O)Cc3ccccc3)ccc2O[C@@H]1CN(C)Cc1ccc2c(c1)OCO2
54) C[C@@H]1CCCCO[C@H](CN(C)S(=O)(=O)c2ccccc2)[C@@H](C)CN([C@H](C)CO)C(=O)c2cc(N(C)C)ccc2O1
55) C[C@@H]1CN([C@@H](C)CO)C(=O)c2ccccc2-c2ccccc2CO[C@H]1CN(C)Cc1cccc(C(=O)O)c1
56) CN1c2ccc(C#Cc3cccnc3)cc2[C@H]2[C@H](CCN2C(=O)C2CCCC2)[C@H]1CO

Screen / compound no. | 49 | 50 | 51 | 52 | 53 | 54 | 55 | 56
Vaccinia inh Venus | 4 | 0 | -2 | 8 | -5 | -4 | 10 | 22
Vaccinia inh | -2 | 14 | -7 | 10 | -2 | 3 | 14 | -8

57) C[C@@H]1CCCCO[C@H](CN(C)C(=O)Nc2ccc(F)cc2)[C@@H](C)CN([C@H](C)CO)C(=O)c2cc(NC(=O)Nc3ccccc3)ccc2O1
58) Cc1noc(C)c1S(=O)(=O)N(C)C[C@@H]1OCCCC[C@@H](C)Oc2ccc(NC(=O)c3ccccc3)cc2C(=O)N([C@@H](C)CO)C[C@H]1C
59) CO[C@@H]1CN(C)C(=O)c2cc(C#N)ccc2OCC[C@@H]2CC[C@@H](OC)[C@@H](CN(C)C(=O)[C@H]1C)O2
60) C[C@@H]1CCCCO[C@@H](CN(C)S(=O)(=O)c2cccs2)[C@H](C)CN([C@H](C)CO)C(=O)c2cc(NC(=O)CCCN(C)C)ccc2O1
61) CO[C@H]1CN(C)C(=O)c2ccc(NC(=O)Nc3ccccc3Cl)cc2OC[C@H](C)NC[C@@H]1C
62) C[C@H](CO)N1C[C@H](C)[C@H](CN(C)C(=O)Nc2ccc(C(F)(F)F)cc2)OCCCC[C@H](C)Oc2ccc(NC(=O)c3ccccc3)cc2C1=O
63) CC(C)NC(=O)Nc1ccc2c(c1)C(=O)N([C@@H](C)CO)C[C@@H](C)[C@H](CN(C)Cc1ccc(C(F)(F)F)cc1)OCCCC[C@@H](C)O2
64) CC(C)NC(=O)N(C)C[C@H]1Oc2ccc(NC(=O)NC3CCCCC3)cc2CC(=O)N([C@H](C)CO)C[C@H]1C

Screen / compound no. | 57 | 58 | 59 | 60 | 61 | 62 | 63 | 64
Vaccinia inh Venus | 5 | -13 | -5 | 2 | x | 1 | x | -4
Vaccinia inh | 15 | -32 | 5 | 1 | u | -7 | u | 2

65) C[C@H]1CN([C@@H](C)CO)C(=O)c2cc(Br)cnc2O[C@@H]1CN(C)S(=O)(=O)c1cn(C)cn1
66) CO[C@@H]1CN(C)C(=O)c2ccc(NS(=O)(=O)c3ccc(C)cc3)cc2OC[C@@H](C)N(Cc2nccs2)C[C@H]1C
67) C[C@@H]1CCCCO[C@@H](CN(C)Cc2ccc(C(=O)O)cc2)[C@@H](C)CN([C@@H](C)CO)C(=O)c2cc(NC(=O)Nc3ccc(C(F)(F)F)cc3)ccc2O1
68) COC(=O)C[C@H]1CC[C@H](NS(=O)(=O)c2ccccc2F)[C@@H](CO)O1
69) Cc1noc(C)c1NC(=O)Nc1ccc2c(c1)C(=O)N([C@H](C)CO)C[C@H](C)[C@H](CN(C)S(=O)(=O)c1ccccc1)OCCCC[C@H](C)O2
70) CCCC#Cc1ccc([C@H]2[C@H](C#N)N(S(C)(=O)=O)[C@H]2CO)cc1
71) C[C@H]1CCCCO[C@H](CN(C)S(=O)(=O)c2cccs2)[C@@H](C)CN([C@@H](C)CO)C(=O)c2cc(NC(=O)Nc3ccc(F)cc3)ccc2O1

Screen / compound no. | 65 | 66 | 67 | 68 | 69 | 70 | 71
Vaccinia inh Venus | -1 | 0 | 7 | 26 | 10 | 5 | 5
Vaccinia inh | 7 | -3 | 16 | 16 | 16 | 5 | -12

Pulled one by one from the list above, 3 records:
65) C[C@H]1CN([C@@H](C)CO)C(=O)c2cc(Br)cnc2O[C@@H]1CN(C)S(=O)(=O)c1cn(C)cn1
69) Cc1noc(C)c1NC(=O)Nc1ccc2c(c1)C(=O)N([C@H](C)CO)C[C@H](C)[C@H](CN(C)S(=O)(=O)c1ccccc1)OCCCC[C@H](C)O2
67) C[C@@H]1CCCCO[C@@H](CN(C)Cc2ccc(C(=O)O)cc2)[C@@H](C)CN([C@@H](C)CO)C(=O)c2cc(NC(=O)Nc3ccc(C(F)(F)F)cc3)ccc2O1

Screen / compound no. | 65 | 69 | 67
Vaccinia inh Venus | -1 | 10 | 7
Vaccinia inh | 7 | 16 | 16
